Bfl-1 A1 inh – caspase 3/7 activation in MEF A1-2A-BIM cells, primary screen, A1 inhibitor project, cell-based, luminescence, HTS. Caspase-Glo 3/7 luminescence, 3 h; percent of clofoctol response, vehicle zero. caspase activation, % (no concentration beside the values). hit rate 0.066% among 330,000;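 active = over half of replicate activation scores above 10%, or exactly half above 10 with the replicate mean above 10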;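 note: wells of about 30 µL received 50 nL stock; many hits fall short of the cut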
ALR H2O2 inh – inhibitors of human ALR sulfhydryl oxidase, primary screen, biochemical, H2O2 detection, HRP-luminol luminescence, single point; FAD-linked sulfhydryl oxidase ALR (Homo sapiens), P55789; hit rate 3.8% among 290,000; AID 485317, 2010; purified ALR, DTT oxidation; inhibition, % (no concentration beside the values);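 active = mean and each replicate at 75% or more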;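 note: stock transfer was 7.5 nL into about 7.5 µL; 0% = neutral wells and 100% = wells with inactivated enzyme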
Target sequence (P55789 whole entry, looked up): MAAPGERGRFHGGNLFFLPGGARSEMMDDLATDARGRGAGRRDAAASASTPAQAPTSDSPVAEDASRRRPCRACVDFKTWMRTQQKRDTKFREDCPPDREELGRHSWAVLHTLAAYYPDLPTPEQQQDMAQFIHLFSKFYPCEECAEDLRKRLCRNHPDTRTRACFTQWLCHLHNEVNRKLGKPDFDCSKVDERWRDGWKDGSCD
B2AR ag – beta2AR agonists driving receptor internalization, primary screen, cell-based, FAP fluorogen, flow cytometry | Beta-2 adrenergic receptor (Homo sapiens), P07550 | Am2.2-beta2AR cells; reference of the scale not given here | response, % (concentration not given with the values) | hit rate 0.43% among 340,000 | AID 504454, 2011;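 active = response above a set limit, near 3 SD of response in nonfluorescent compounds, cut at about 42% in these data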;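 note: stock transfer was 100 nL into about 11 µL; a reference agonist was the positive control; negative values mostly stem from fluorescent compounds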
Target sequence (P07550 whole entry, looked up): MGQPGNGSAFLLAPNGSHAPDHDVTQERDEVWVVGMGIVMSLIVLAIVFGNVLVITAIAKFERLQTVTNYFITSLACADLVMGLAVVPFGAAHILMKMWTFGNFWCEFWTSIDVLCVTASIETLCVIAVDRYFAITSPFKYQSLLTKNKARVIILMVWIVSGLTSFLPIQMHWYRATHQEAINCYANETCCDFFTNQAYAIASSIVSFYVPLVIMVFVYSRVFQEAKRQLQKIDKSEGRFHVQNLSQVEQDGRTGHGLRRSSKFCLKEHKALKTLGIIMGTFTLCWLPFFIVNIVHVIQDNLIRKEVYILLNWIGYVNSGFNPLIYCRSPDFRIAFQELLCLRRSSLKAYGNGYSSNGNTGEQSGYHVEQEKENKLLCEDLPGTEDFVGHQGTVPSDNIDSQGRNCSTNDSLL
Calb FLC – C. albicans growth inhibition with fluconazole, primary screen, CaCi-2 strain, Alamar Blue fluorescence | C. albicans CaCi-2 (fluconazole-resistant clinical isolate) + fluconazole, 48 h | growth inhibition, % (test concentration not listed) | hit rate 0.57% among 300,000 | AID 1979, 2009;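 active = most replicates above 75%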;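 note: all wells also contain fluconazole at 8 µg/ml as a sub-toxic cotreatment; 0% = median of DMSO wells and 100% = median of geldanamycin control wells; wells of about 8 µL received 7.5 nL stock; the first replicate is given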
Ecoli rRNA inh – reduced GFP signal of wild-type E. coli, primary screen, bacterial rRNA inhibitor project, GFP/RFP fluorescence, OD600, single point; E. coli WT GFP vs humanized-ribosome RFP mutants, 24 h; hits give low values; DMSO median 0, no signal -100; GFP signal change (wild-type ribosome), % (concentration not given with the values); hit rate 1.6% among 350,000;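 active = significant combined selectivity score with lowered wild-type GFP, culture density cut under 30%, mutant RFP and density less affected; inactive = any of these conditions unmet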; note: one replicate is shown; some compounds called inactive have numbers as strong as hits
T cruzi repl – inhibitors of intracellular T. cruzi growth, primary screen, luminescence, NIH3T3 host cells. T. cruzi beta-gal in NIH3T3, 90 h. inhibition, % (test concentration not listed). hit rate 1.4% among 300,000. AID 1885, 2009;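 active = mean inhibition across valid replicates above about 55%, limit read from the data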;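 note: signal also drops with host cell toxicity which is not excluded here; 0% = plate median of DMSO wells and 100% = zero luminescence signal; higher percent means less beta-gal luminescence so fewer parasites; stock transfer was 50 nL into about 50 µL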
LANA-H2B inh – blockers of LANA interaction with H2A/H2B – biochemical, FP readout, HTS, primary screen | Protein LANA1 (Human herpesvirus 8 type P (isolate GK18)), Q9QR71 | cell-free LANA-H2A/H2B peptide, fluorescence polarization | inhibition, % (test concentration not listed) | hit rate 0.6% among 320,000 | AID 2629, 2010; in the data active = inhibition mostly above about 10%, no sharp cut-off; inactive = mostly below about 6.7%;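 note: stock transfer was 7.5 nL into about 10 µL; 0% = median of vehicle wells and 100% = median of positive control wells; one replicate is shown; the record names a cut of 25% in any replicate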
Beta apoptosis – inhibitors of cytokine-induced beta cell apoptosis, primary screen, luminescence | INS-1E cytokine-induced death, ATP luminescence, 48 h; percent of positive-control rescue, neutral wells zero | hit rate 0.8% among 300,000 | AID 435005, 2010 | protection from apoptosis, % (no concentration beside the values);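 active = all replicates at 75% or more, or half of them and the mean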;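 note: 0% = cytokine-treated negative control wells and 100% = positive control rescue; higher means more ATP so stronger rescue from cytokine killing; wells of about 40 µL received 100 nL stock; the first replicate is given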
Ecoli rRNA inh OD600 – recorded beside Ecoli rRNA inh, whose call it bears; OD600 change, %; measured here: OD600 growth;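 optical density of the mix in the first replicate; 0 = DMSO median and -100 = no signal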
Ecoli rRNA inh RFP – further read-out of Ecoli rRNA inh, marked with its call; RFP signal change, %; measured here: RFP humanized mutant strains;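 first replicate; 0 = DMSO median and -100 = no signal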
* marks the source's active call; other numbers are inactive results; . = no result given. A portion of the library. The share of hits here may be higher or lower than overall.

SMILES | Bfl-1 A1 inh | ALR H2O2 inh | B2AR ag | Calb FLC | Ecoli rRNA inh | Ecoli rRNA inh OD600 | Ecoli rRNA inh RFP | T cruzi repl | LANA-H2B inh | Beta apoptosis
CCOC(=O)C1CCCN(S(=O)(=O)c2ccc(S(N)(=O)=O)cc2)C1 (centres undefined) | 0.5 | -8 | 6 | -5 | -1 | 4 | 1.1 | -11 | 0.3 | 1
CCC(=O)N(Cc1ccco1)c1nc(-c2cc(OC)ccc2OC)cs1 | 0.8 | -19 | -7 | 5 | . | . | . | 10 | 6.3 | -3
CN1CCN(CC(=O)N(Cc2c(C#N)c3ccccc3n2C)c2ccccc2)CC1 | -0.1 | . | -15 | -12 | . | . | . | 7 | 4.5 | -6
O=C(O)c1c2c(nc3ccccc13)/C(=C/c1ccc(O)cc1)CCC2 | 0.2 | 100* | -5 | 5 | -42 | -45 | -1.2 | -6 | -2.6 | 3
Cc1ccc(CC2C(=O)N(c3nc(C)cc(C)n3)C(=O)C2C)cc1 (centres undefined) | -0.2 | 2 | -4 | 0 | 7 | 6 | 2.9 | 4 | -2.3 | -5
CC(c1ccccc1)N1CCn2c(nc3cc(NC(=O)c4cccs4)ccc32)C1 (centres undefined) | 1.5 | -18 | 6 | -19 | . | . | . | 7 | 2.1 | 2
COc1ccccc1C(=O)N/C(=C\c1ccc(Br)cc1)C(=O)NCCCO | 0.0 | -20 | -15 | 29 | 0 | -1 | -4.5 | 1 | 2.3 | -1
Brc1ccc2nc(N3CCN(c4ccccc4)CC3)sc2c1 | 0.0 | . | -1 | 1 | 16 | 2 | 0.2 | 44 | -4.3 | 4
O=C1NC(=S)N/C1=C/c1cc([N+](=O)[O-])ccc1N1CCOCC1 | -0.4 | 1 | 1 | 27 | -9 | -1 | -0.4 | -13 | -3.4 | .
CCOC(=O)C1CCN(S(=O)(=O)c2ccc3oc(=O)ccc3c2)CC1 | 0.1 | . | 0 | 1 | 2 | 1 | 0.2 | -22 | 1.5 | 1
CCc1ccccc1NC(=O)c1nnn(CC(=O)Nc2cccc(C)c2)c1N | 2.3 | -3 | -9 | 9 | . | . | . | 4 | 6.0 | -6
Cc1cc(Cl)ccc1OC(C)C(=O)Nc1ccc(S(=O)(=O)N2CCOCC2)cc1 (centres undefined) | 0.2 | -10 | 6 | -9 | -1 | -1 | 1.7 | 0 | -1.3 | -6
COc1ccc(CCNC(=O)CCc2nnc(Cc3ccc4c(c3)OCO4)o2)c(OC)c1 | 0.8 | -1 | 5 | -5 | -9 | -15 | -6.4 | 5 | 0.2 | -2
COCCCNC(=O)c1cn(CC(C)C)c(=O)c2c1c1ccccc1n2C | -0.8 | -19 | -94 | 6 | . | . | . | 6 | 3.8 | .
Cc1ccc(O)c(CP(=O)(c2ccccc2)c2ccccc2)c1 | 0.2 | 27 | -1 | 8 | -6 | -5 | -9.6 | -22 | 5.5 | -1
CC1CCN(CC(=O)Nc2cccc([N+](=O)[O-])c2)CC1 | 1.2 | -1 | 1 | -1 | . | . | . | -17 | 0.9 | -10
CC(=O)N(C1=C(N)C(=O)c2ccccc2C1=O)c1ccccc1 | -0.1 | -45 | 6 | 13 | -15 | -12 | -8.8 | -8 | -5.2 | 29
COC(=O)c1cc(C(=O)Nc2ccc(C)cn2)cc([N+](=O)[O-])c1 | 2.1 | . | -11 | -25 | 12 | 12 | 3.0 | 0 | 1.1 | 5
C=CCOC(=O)C1=C(C)N=C2SCCC(=O)N2C1c1ccc(OC(=O)c2ccco2)cc1 (centres undefined) | 0.7 | -4 | 7 | -16 | . | . | . | 4 | -1.4 | 8
NC(=O)NC(Cc1ccccc1)C(=O)N1CCN(S(=O)(=O)c2ccc(Cl)cc2)CC1 (centres undefined) | 0.2 | -3 | 8 | . | -5 | 2 | -0.7 | . | -13 | -4
CCC1(C)Cc2ccccc2-c2nc3n(c(=O)c21)CC(C(=O)O)S3 (centres undefined) | 1.6 | -2 | -1 | 11 | . | . | . | 2 | 2.2 | -5
Cc1oc2ccc(O)cc2c1C(=O)c1ccccc1 | 0.5 | 0 | -4 | 15 | -3 | -6 | -1.0 | 1 | -9.7 | -2
COc1ccc(C)cc1NC(=O)C1CCCN(S(=O)(=O)c2ccc3c(c2)CCCN3C(C)=O)C1 (centres undefined) | -0.3 | -3 | -2 | -36 | 0 | 4 | 2.1 | 1 | 5.5 | 4
Cc1cccc(OCCNc2ccc([N+](=O)[O-])cn2)c1 | 0.8 | . | 0 | -3 | -11 | -3 | 7.7 | -12 | -0.6 | 3
CC(C)OCCCN1CN(S(=O)(=O)c2cccc(Cl)c2)c2nc3ccccc3nc21 | 0.3 | -8 | 2 | -2 | . | . | . | 23 | -0.7 | -5
CCC(=O)c1ccc(OCC(O)CNC(C)c2ccccc2)cc1 (centres undefined) | 0.2 | -2 | -1 | -1 | . | . | . | 5 | -0.6 | 1
O=C(NCc1ccco1)NCC(F)(F)F | -1.4 | . | -3 | 3 | . | . | . | -6 | 7.5 | 1
Cc1cnc(CNC(=O)C2CCC(=O)N(CCc3ccc(Cl)cc3)C2)cn1 (centres undefined) | . | . | 5 | -3 | 2 | 3 | -2.8 | -6 | . | .
COc1ccc(Nc2c([N+](=O)[O-])ccc3c2=NC2(CCCCC2)N=3)cc1 | 0.8 | -11 | 0 | 18 | -15 | -11 | -16 | -13 | -0.5 | 1
CC1(NC(=O)NCc2ccccc2)CCS(=O)(=O)C1 (centres undefined) | -0.1 | -3 | -2 | -20 | 10 | 7 | 1.9 | -15 | -1.1 | -3
CCn1ncc(C2=NOC(C(=O)Nc3cnn(C45CC6CC(CC(C6)C4)C5)c3)C2)c1C (centres undefined) | -0.1 | -3 | -3 | 20 | 11 | 5 | -4.1 | 35 | -10 | 16
COC(C[C@H](O)[C@H](C)[C@@H](O)COCc1ccccc1)OC | . | . | 4 | 5 | 14 | 14 | 6.3 | -1 | . | .
CCC(=O)c1ccc(OCC(O)CN2CC(C)OC(C)C2)cc1 (centres undefined) | -0.1 | 6 | 6 | 0 | . | . | . | 5 | -4.0 | -5
COc1ccc(NC(=O)N(Cc2cc3cc(C)ccc3[nH]c2=O)CC2CCCO2)cc1 (centres undefined) | 1.6 | -2 | -138 | -7 | 5 | -7 | -0.5 | 0 | -6.6 | 1
Cc1cc(C)n2nc(C(=O)OCC(=O)NC(=O)c3ccccc3)nc2n1 | 1.2 | 26 | -5 | 2 | 7 | 13 | 1.2 | -1 | 3.4 | -3
Cc1c(N2C(=O)c3ccc4c5c(ccc(c35)C2=O)CC4)c(=O)n(-c2ccccc2)n1C | -1.2 | -20 | 3 | -13 | . | . | . | 0 | 3.2 | 4
O=C(CSc1ncn[nH]1)Nc1nc(-c2ccccc2)ns1 | -4.9 | 0 | 2 | -2 | . | . | . | -33 | -0.3 | 4
Nn1c(SCC(=O)N2CCOCC2)nnc1-c1cccnc1 | -0.6 | -8 | 6 | . | 5 | 3 | 0.1 | . | . | -4
CC(=O)c1cccc(N(C(=O)CNC(=O)c2ccco2)C(C(=O)NCC2CCCO2)c2ccccc2)c1 (centres undefined) | 0.3 | -1 | -1 | -3 | -2 | 4 | -2.9 | -3 | 5.1 | -7
CCN(Cc1ccccc1)C(=O)C1CCN(c2ncnc3c2nc2n3CCCCC2)CC1 | -0.4 | -1 | 5 | -1 | -25* | -16* | -3.2* | 10 | -5.7 | 0

Just Calb FLC, for some of the entries so far:
| smiles | Calb FLC |
| --- | --- |
| CCC(=O)c1ccc(OCC(O)CN2CC(C)OC(C)C2)cc1 (centres undefined) | 0 |
| COc1ccc(NC(=O)N(Cc2cc3cc(C)ccc3[nH]c2=O)CC2CCCO2)cc1 (centres undefined) | -7 |

Remaining list, next part:
SMILES | Bfl-1 A1 inh | ALR H2O2 inh | B2AR ag | Calb FLC | Ecoli rRNA inh | Ecoli rRNA inh OD600 | Ecoli rRNA inh RFP | T cruzi repl | LANA-H2B inh | Beta apoptosis
O=C(Cc1ccccc1)NCC(=O)OCC(=O)c1cccc([N+](=O)[O-])c1 | -0.1 | 1 | 1 | 3 | . | . | . | -8 | 5.9 | -2
O=C(c1cc(-c2ccc(Cl)cc2)n[nH]1)N1CCc2ccccc2C1 | 0.3 | -10 | 0 | -21 | 0 | 10 | -0.9 | -7 | -4.3 | 4
Cc1ccc(C(=O)CSc2nc3ccccc3o2)cc1 | 0.2 | -1 | 0 | -14 | . | . | . | -19 | -0.6 | -6
CC1CCc2nc3ccccc3c(C(=O)OCC(=O)N(C)C3CCS(=O)(=O)C3)c2C1 (centres undefined) | -0.2 | -16 | -2 | -3 | -6 | -4 | 3.0 | 5 | 5.7 | -5
COc1ccc(/C(N)=N/OC(=O)CSc2ccccc2)cc1OC | -1.2 | -11 | -4 | 1 | . | . | . | 22 | 1.2 | -4
NC(=O)COC(=O)CN1C(=O)C2CCCCC2C1=O (centres undefined) | 0.1 | -27 | -2 | 35 | . | . | . | -25 | 3.5 | 1
COc1ccc(C)cc1S(=O)(=O)N(C)CC(=O)N1CCCCC1 | -0.2 | -9 | 0 | -15 | 6 | 0 | 3.6 | -18 | 0.1 | -2
CCOc1ccccc1C1NC(=O)NC(C)=C1C(=O)OC1CCCCC1 (centres undefined) | -0.2 | 3 | -1 | -7 | . | . | . | 9 | 3.3 | -4
Cc1nc(NC(=O)c2ccc3c(c2)OCO3)ccc1Br | -6.2 | 4 | -10 | -8 | 12 | 14 | -4.6 | 5 | -0.2 | 7
Cc1ccc(CNC(=O)c2c(-c3ccccc3Cl)noc2C)cc1 | 1.4 | -8 | 2 | -10 | -2 | 4 | 1.5 | 4 | -1.1 | 3
CCOCCCNC(=O)/C(C#N)=C/c1cc(OC)c(O)c([N+](=O)[O-])c1 | 1.9 | 4 | -3 | 49 | -12 | -9 | -5.6 | -1 | 0.1 | 9
CCCN(C(=O)c1ccc(-n2cncn2)c([N+](=O)[O-])c1)C1CCS(=O)(=O)C1 (centres undefined) | 0.8 | -65 | -6 | . | -7 | 12 | -4.0 | . | 3.3 | 2
O=C(COc1ccccc1)Nc1c2c(nn1-c1ccccc1)CS(=O)(=O)C2 | -0.7 | -5 | -6 | -4 | 4 | 8 | 2.7 | 1 | 2.6 | -3
CCCN1CCC(NCC(C)c2ccccc2)CC1 (centres undefined) | -0.4 | -46 | -5 | -3 | -4 | 6 | -3.2 | 2 | 1.7 | 4
Cc1nc(SCC(=O)N2CC(=O)Nc3ccccc32)nc(C)c1C | 0.1 | . | 2 | 6 | 2 | -1 | -9.7 | -2 | 3.0 | 0
O=C(COc1ccc(S(=O)(=O)NCc2ccccc2)cc1Cl)N1CCOCC1 | 0.4 | -12 | -2 | -11 | . | . | . | 8 | 4.5 | -6

Source: PubChem BioAssay (several laboratories)
